Screening data (PubChem)
Sfp PPTase inh: inhibitors of Bacillus subtilis Sfp phosphopantetheinyl transferase; hit rate 3.5% among 310,000; Potency, µM, inactives show max response, negative = inhibition, hits mostly inhibitors; Biochemical Sfp PPTase activity, qHTS; Q9F4F7; active = well fitted inhibition curve with a large enough effect; inconclusive = small, poorly fitted or top-dose-only effect, or another doubt; inactive = no such curve, though single readings can be large or run the other way;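 note: the enzyme is Sfp with the accession as filed and its product quenches rhodamine fluorescence; 0% = enzyme reaction without inhibitor and -100% = no enzyme wells; top concentration of the series not given in the record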
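Step 1, compound plus 15 nM Sfp-PPTase, 15 min, room temperature. Step 2, add rhodamine-CoA (5 uM) and BHQ-2-YbbR (12.5 uM). Step 3, read 525/598 nm fluorescence at 0 and 30 min.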
* hit, by the source's call; ? = inconclusive; & = joins results of further samples; [ ] = another dose, or the depositor's remark. Potency is the fitted concentration of half-maximal effect.

SMILES	Sfp PPTase inh
COC(=O)[C@H](COC(C)(C)C)NC(=O)O[C@@H]1C(=O)c2cc(OC)ccc2O[C@H]1c1cccc(OC)c1	-3%
S=C(NC1CCCCC1)N1CCC([C@H]2C=NC=N2)CC1	8%
CC1(OC(=O)CCc2ccccc2)C(=O)C=C2C=C(c3ccc(C#N)cc3)OC=C2C1=O (stereo unspecified)	-6%
COC(=O)C1(C(=O)OC)C/C=C\C/C=C\c2ccccc2[C@@H]1C[N+](=O)[O-]	-8%&12%
COCCOC(=O)C1=C(C)NC(C)=C(C(=O)OC(C)C)[C@@H]1c1cccc([N+](=O)[O-])c1	4%
OC[C@@H](O)C(O)[C@H](O)[C@@H](O)CO (stereo partly specified)	-2%
NC[C@@H]1O[C@H](OC2[C@@H](CO)O[C@@H](OC3[C@H](O)[C@H](N)C[C@H](N)[C@H]3OC3O[C@H](CO)[C@@H](O)[C@H](O)[C@@H]3N)[C@H]2O)C(N)[C@H](O)[C@@H]1O (stereo partly specified)	12%
CCCCCCCC(=O)O[C@H](CC(=O)O)C[N+](C)(C)C	-16%
CC(O)COc1ccccc1 (stereo unspecified)	13%
CCCCCCCCCCCCCCCC(=O)OC[C@H](O)[C@H]1OC[C@@H](O)[C@@H]1O	5%
CCC1=C2CC[C@H]3C(=O)N(C)C(=O)[C@H]3[C@H]2[C@@]2(Cc3ccccc3)C(=NCC3CC3)OC(=O)N2C1=O	19%
COc1ccc(Cl)cc1N=Nc1ncc[nH]1	6%&-7%
COC(=O)[C@@H]1C[C@@]2(O)[C@@H](O)[C@@H](O)[C@@H](O)C[C@H]2N1Cc1cc(F)ccc1F	-23%
COC(=O)C1=C(C)NC(C)=C([N+](=O)[O-])[C@@H]1c1ccccc1C(F)(F)F	-12%&3%
COc1cccc([C@@H]2Oc3ccc(OC)cc3C(=O)[C@H]2OC(=O)N[C@H]2CCCc3ccccc32)c1	-29%
Cc1ccc2c(c1)C(=O)[C@]1(O)CCN(c3ccccc3)C1=N2	9%&3%
Cc1nn(-c2ccccc2)c(C)c1/C=N/N1CCN(Cc2ccccc2)CC1	14%
COC(=O)/C=C/c1ccc(C(=O)NCC(=O)N[C@@H](CCC(=O)OC)C(=O)N[C@@H](CC(C)C)C(N)=O)cc1	18%&12%
O=c1onc2cnc3ccccc3n12	-6%
CO[C@@H]1COC(=O)[C@H]2CCCN2C(=O)[C@@H](C)COC(=O)CCC[C@H]1C	26%
CSCC[C@H](NC(=O)[C@H](CCCNC(=N)N)NC(=O)[C@H](Cc1ccc(O)cc1)NC(=O)[C@@H]1CCCN1C(=O)CNC(=O)[C@H](CCC(=O)O)NC(=O)[C@H](CC(=O)O)NC(=O)[C@H](CCCCN)NC(=O)[C@H](CCCCN)NC(=O)[C@H](CCC(=O)O)NC(=O)[C@H](C)N)C(=O)N[C@@H](CCC(=O)O)C(=O)N[C@@H](Cc1cnc[nH]1)C(=O)N[C@@H](Cc1ccccc1)C(=O)N[C@@H](CCCNC(=N)N)C(=O)N[C@@H](Cc1c[nH]c2ccccc12)C(=O)NCC(=O)N[C@@H](CO)C(=O)N1CCC[C@H]1C(=O)N1CCC[C@H]1C(=O)N[C@@H](CCCCN)C(=O)N[C@@H](CC(=O)O)C(=O)O	8%
O=c1cc[nH]c(=S)[nH]1	45µM*
c1ncc(CC2CCNCC2)[nH]1	2%&18%
CC[C@H](C)C(=O)O[C@H]1C[C@H](O)C=C2C=C[C@H](C)[C@H](CC[C@@H](O)C[C@@H](O)CC(=O)O)[C@H]21	28%
COC(=O)c1c(-c2cc(OC)c(OC)c(OC)c2)c2ccnc(OCc3ncccn3)c2c(=O)n1Cc1ccnc(C)c1	5%
O=C(O)Cc1c(Cl)ccc(Cl)c1Cl	5%
COc1cccc2c3c(c(C)nc12)CC(CO)O3 (stereo unspecified)	28%
O=C1CCC[C@@H](C(C(=O)OCc2ccccc2)C(=O)OCc2ccccc2)C1	2%
c1ccc2sc(SSc3nc4ccccc4s3)nc2c1	56µM*
CC(C)[C@@H](OCc1ccccc1)[C@H](C)/C=N\OC[C@@H](C)[C@H](OCc1ccccc1)C(C)C	7%
CC1=C2C(O)C(=O)OC3CC4C(C)(C)C(=O)C=C[C@]4(C)C(CC1)[C@@]23C (stereo partly specified)	4%
CN(C)CC(O)Cn1c2ccc(Br)cc2c2cc(Br)ccc21 (stereo unspecified)	?
CCN1C(=O)[C@@H]2[C@H]3C(=CC[C@H]2C1=O)C(=O)[C@H]1OC1[C@H]3O (stereo partly specified)	9%
CC(C)OC(=O)[C@@H]1CC[C@H](C)[C@@H](CCC[C@@H]2CC=C[C@H](CC#N)O2)O1	-1%
O=C(Nc1ccccc1)N[C@H]1C[C@H](C(=O)O)Nc2cc(Cl)cc(Cl)c21	-28%&-24%
COCCNc1nc(C)nc2c1nc(-c1ccccc1)n2CCN(C)C	26%
CC(C)c1cccc2nc3c(c(C(C)(C)C)c12)Cn1c-3cccc1=O	1%
COc1ccc(/C=C/N(CCc2ccc(OC)c(OC)c2)C(=O)c2ccccn2)cc1	3%
CNC(=O)[C@H](C)/C=C(\c1cccnc1)C(NC(=O)OCc1ccccc1)c1ccc(C(=O)OC)cc1 (stereo partly specified)	18%
CCOC(=O)OCC1OC(c2ccccc2)C=CC1Oc1ccc2oc(=O)cc(C)c2c1 (stereo unspecified)	7%
CC(C)CO/N=C1/C[C@@H](O)[C@@H](O)[C@@H]2[C@@H]3C(=O)N(Cc4ccc5c(c4)OCO5)C(=O)[C@H]3CC[C@@H]12	-11%
C=CC[C@@H]1C=C[C@@H](O/N=C\[C@@H](NS(=O)(=O)c2ccc(C)cc2)[C@H](C)/C=C\CC(=O)OC)[C@@H](CO)O1	-10%
CC(C)C(N)C(=O)OCCOCn1cnc2c(=O)[nH]c(N)nc21 (stereo unspecified)	-9%
C[C@@H]1C=CCC(=O)OC[C@H](C)C(=O)OC[C@H]2O[C@H]1C=C[C@H]2O	-12%
C[C@@H](c1ccccc1)N1C(=O)[C@H]2[C@H]3[C@H](O)[C@H](O)C/C(=N/NC(=O)OCc4ccccc4)[C@@H]3CC[C@@H]2C1=O	-5%
CCOC(=O)CCN1C(=O)[C@H]2[C@@H]3[C@H](O)C=CC(=O)[C@H]3CC[C@H]2C1=O	-7%
NC1(C(=O)O)CCc2cc(P(=O)(O)O)ccc21 (stereo unspecified)	56µM*
C=CCn1c(=O)c2c(nc(-c3ccccc3)n2C)n(C)c1=O	14%
COC(=O)[C@@]1(Cc2ccccc2)[C@H]2c3cc(C(=O)N(C)C)n(Cc4ccsc4Br)c3C[C@H]2CN1C(=O)c1ccccc1	-7%
COc1ccc(CN2CCC3C=CCC(C(=O)O)C3C2=O)cc1OC (stereo unspecified)	2%
Cc1ccccc1OCC(O)CNCCOc1ccc(C(N)=O)cc1 (stereo unspecified)	14%
NC(N)=NCCC[C@@H](N)C(=O)NCC(=O)N[C@@H](CC(=O)O)C(=O)N[C@@H](Cc1c[nH]c2ccccc12)C(=O)O	9%
CC1CC(OC(=O)c2ccccc2O)CC(C)(C)C1 (stereo unspecified)	-10%&8%
OC[C@@H]1O[C@@H](Oc2ccc(O)cc2)[C@H](O)[C@@H](O)[C@@H]1O	17%
O=c1cc(-c2cc3ccccc3oc2=O)c2ccc(O)cc2o1	-12%
COc1ccc(CC(N)C(=O)NC2C(CO)OC(n3cnc4c(N(C)C)ncnc43)C2O)cc1 (stereo unspecified)	20%
CCCc1cc2c(c(=O)o1)C(O)C1OC1C2=O (stereo unspecified)	-24%
CC(C)CCOC(=O)c1ccc(N(C)C)cc1	10%
CCC(=O)NCCC1CCc2ccc3c(c21)CCO3 (stereo unspecified)	9%
CCCCCCCC#Cc1ccccc1/C=N/S(=O)C(C)(C)C (stereo unspecified)	1%

Rewritten as labelled records: entries from further up
canonical_smiles: COc1ccc(CC(N)C(=O)NC2C(CO)OC(n3cnc4c(N(C)C)ncnc43)C2O)cc1 (stereo unspecified)
  Sfp PPTase inh = 20%

canonical_smiles: O=c1cc(-c2cc3ccccc3oc2=O)c2ccc(O)cc2o1
  Sfp PPTase inh = -12%

6 compounds drawn at random from the list so far:
SMILES	Sfp PPTase inh
c1ncc(CC2CCNCC2)[nH]1	2%&18%
CO[C@@H]1COC(=O)[C@H]2CCCN2C(=O)[C@@H](C)COC(=O)CCC[C@H]1C	26%
OC[C@@H](O)C(O)[C@H](O)[C@@H](O)CO (stereo partly specified)	-2%
CCOC(=O)CCN1C(=O)[C@H]2[C@@H]3[C@H](O)C=CC(=O)[C@H]3CC[C@H]2C1=O	-7%
NC[C@@H]1O[C@H](OC2[C@@H](CO)O[C@@H](OC3[C@H](O)[C@H](N)C[C@H](N)[C@H]3OC3O[C@H](CO)[C@@H](O)[C@H](O)[C@@H]3N)[C@H]2O)C(N)[C@H](O)[C@@H]1O (stereo partly specified)	12%
CNC(=O)[C@H](C)/C=C(\c1cccnc1)C(NC(=O)OCc1ccccc1)c1ccc(C(=O)OC)cc1 (stereo partly specified)	18%

(more compounds)
SMILES	Sfp PPTase inh
CC12C=CC(=O)C=C1[C@@H](F)CC1C2C(O)CC2(C)C1CC[C@]2(O)C(=O)CO (stereo partly specified)	3%
CC1(C(=O)O)CCC2(C)CCC3(C)C(=CC(=O)C4C5(C)CCC(O)C(C)(C)C5CCC43C)C2C1 (stereo unspecified)	3%
CN1CCCN([C@@H](c2ccccc2)c2ccc(Cl)cc2)CC1	5%
COc1ccc(-c2coc3ccc(OC4OC(COC(C)=O)C(OC(C)=O)C(OC(C)=O)C4OC(C)=O)cc3c2=O)cc1 (stereo unspecified)	24%
C=CC[C@@H]1C=C[C@@H](O/N=C\[C@@H](OC)[C@H](C)/C=C\CC(=O)OC)[C@@H](CO)O1	7%
CCOC(=O)CCN1C(=O)[C@H]2[C@H]3[C@H](O)[C@H](O)C/C(=N/O[C@@H]4O[C@@H](COC(C)=O)[C@@H](OC(C)=O)[C@@H](OC(C)=O)[C@H]4OC(C)=O)[C@@H]3CC[C@@H]2C1=O	12%
CCCCS(=O)(=O)N1C2=NC(C(=O)OC)=C(C(=O)OC)[C@@H]3N(C)c4ccccc4[C@]23C[C@H]1C(=O)OC	-15%
CCCCNc1nc(C)nc2c1nc(-c1ccccc1)n2CCCN(C)C	33%[activator]
COC1[C@@H](OC)C[C@H](C)[C@@H](OC)C2=CC(=O)C=C(NC(=O)/C(C)=C/C=C\[C@H](OC)[C@@H](OC(N)=O)/C(C)=C/[C@@H]1C)C2=O (stereo partly specified)	-27%
COc1ccc(C2=N[C@@H](C(C)C)CO2)cc1	12%
COC(=O)C(/C=C/C(C)Cc1cc(Br)cc(OCc2ccccc2)c1OC)OCc1ccccc1 (stereo unspecified)	-14%
Cc1ccc(C(=O)OC[C@H]2O[C@H](Cl)C[C@@H]2OC(=O)c2ccc(C)cc2)cc1	-7%
CO/N=C(\C)CCN1CCCCc2nc(C)c(C)cc21	-19%
O=P(O)(O)C(O)(Cn1ccnc1)P(=O)(O)O	11%
O=C(O)c1ccc(S(=O)(=O)N[C@H](Cc2ccc([N+](=O)[O-])cc2)C(=O)O)cc1	9%

Quoted from the listing:
C=CC[C@@H]1C=C[C@@H](O/N=C\[C@@H](OC)[C@H](C)/C=C\CC(=O)OC)[C@@H](CO)O1 – Sfp PPTase inh: 7%
COc1ccc(C2=N[C@@H](C(C)C)CO2)cc1 – Sfp PPTase inh: 12%

The results go on:
SMILES	Sfp PPTase inh
CCCn1c(-c2ccc(F)cc2)nc2c(NCCN(C)C)nc(C)nc21	-4%
CC#CCN1c2ccccc2[C@]23C[C@@H](C(=O)OC)N(C(=O)COCc4ccccc4)C2=NC(C(=O)OC)=C(C(=O)OC)[C@H]13	12%
Nc1c[n+](N2CCOCC2)no1	8%
Cc1ccc(S(=O)(=O)Nc2ccc(NS(=O)(=O)c3ccc(C)cc3)c3ncccc23)cc1	14%
CCCCCCCCCCCCCCCC(=O)NCCCC(=O)O	27%
CCOC(=O)c1c(C)cc(OC)cc1O	-4%
O=C(O)c1ccc(OCCCOc2ccc(C(=O)O)cc2)cc1	10%&11%
CC(=O)OCC(OC(C)=O)C(OC(C)=O)C(OC(C)=O)C(OC(C)=O)C(COC(C)=O)OC(C)=O (stereo unspecified)	14%
C#C[C@]1(O)CC[C@@H]2[C@H]3CCC4=CC(=O)CC[C@H]4[C@H]3C(=C)C[C@@]21CC	6%
COC(=O)N1c2ccccc2C23[C@@H]4CN5CCC[C@]6(CCC12C(O)(C6)C4=O)[C@H]53	-5%
CC(C)(C)C(=O)NCCCC(=O)O	5%
CC(C)(C)OC(=O)NCCCC1=CC2=CC(=O)C(C)(OC(=O)CCc3ccccc3)C(=O)C2=CO1 (stereo unspecified)	0%&9%
O=C1CCCC=C1[C@@H](O)CCOC(c1ccccc1)(c1ccccc1)c1ccccc1	12%&-13%
C=C(COC)C1=CCC(C(=O)OC)(C(=O)OC)[C@@H](C[N+](=O)[O-])c2ccccc21	-29%&17%
CCOC(=O)C(C(=O)OCC)N(Cc1cc(OC)ccc1OC)C(=O)C1CC(CO[Si](C)(C)C(C)(C)C)=CN1C(=O)OC(C)(C)C (stereo unspecified)	-7%
N[C@@H](Cn1c2c(c(=O)[nH]c1=O)CCC2)C(=O)O	-8%
CC(C)(C)c1ccc(C(=O)CCCN2CCC(OC(c3ccccc3)c3ccccc3)CC2)cc1	50µM*
O=C(OCc1ccccc1)[C@@H]1COC(c2ccc(Br)cc2)=N1	1%
O=C(O)C1CC[C@@](C(=O)O)(c2ccccc2)c2ccccc21 (stereo partly specified)	-4%
COC(=O)/C=C\CCc1coc(/C=C\CNC(=O)OC)n1	2%
OCC1OC(c2ccc3c(c2)OCO3)C=CC1Oc1ccc(C2CCCC2)cc1 (stereo unspecified)	-3%
O=C(O)[C@H]1CN(CCCP(=O)(O)O)CCN1	8%&-4%
COc1ccc2c(c1)O[C@H](c1ccc3c(c1)OCO3)[C@@H](OC(=O)NCc1ccco1)C2=O	89µM*
COc1ccc(C2=Nn3c(nnc3-c3ccccc3O)SC2)c(OC)c1	6%

These rows are one share of the data; count on the stated rates, not on these rows.
